HPGD block: HPGD (human) dehydrogenase inhibition; P15428; purified HPGD, NADH fluorescence kinetic, PGE2 substrate; Potency, µM, inactives show at the highest dose activity change, negative = inhibition, hits mostly inhibitors; hit rate 4.3% among 150,000; active = well fitted inhibition curve with a large enough effect (not every such curve was filed as active); inconclusive = small, poorly fitted or top-dose-only effect, or another doubt; inactive = no such curve, though single readings can be large or run the other way;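 note: top concentration of the series not given in the record; plate controls included wells without enzyme; inactives centre near -10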
Target sequence (P15428 whole entry, looked up): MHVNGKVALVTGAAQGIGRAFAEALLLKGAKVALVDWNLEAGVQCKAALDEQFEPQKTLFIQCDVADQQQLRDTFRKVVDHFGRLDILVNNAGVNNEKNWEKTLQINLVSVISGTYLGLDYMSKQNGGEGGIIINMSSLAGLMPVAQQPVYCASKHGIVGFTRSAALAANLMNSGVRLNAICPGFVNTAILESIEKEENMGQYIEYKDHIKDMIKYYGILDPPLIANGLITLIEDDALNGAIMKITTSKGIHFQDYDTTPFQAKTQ
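NADH formation kinetics: reaction with 30 uM PGE2 and 1 mM NAD+ (final), 20 nM enzyme, Tris-HCl pH 8 with Tween 20, after 15 min compound preincubation at room temperature. Fluorescence change, last versus first of five reads.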
* = called active by the depositor; ? = inconclusive; & = joins results of further samples. % is set by controls: 0 for no effect and ±100 for the full control effect; potency is the fitted concentration of half-maximal effect. The list is partial. The share of hits here may be higher or lower than overall.

SMILES	HPGD block
CC(C)C[C@@H](CC(=O)N[C@@H](CCC(=O)O)CC(=O)O)NC(=O)[C@@H]1CNCC[C@H]1NC(=O)C[C@H](CCCN)NC(=O)C[C@H](Cc1ccccc1)NC(=O)[C@@H]1CCCC[C@H]1N	-11.1%
Cc1ccc(S(=O)(=O)N2CCN(S(=O)(=O)N3CCCCC3)CC2)c(C)c1	0.9%
O=C(NCc1ccc2c(c1)OCO2)c1ccc2c(c1)C(=O)N(Cc1cccnc1)C2=O	-15.4%
C/C=C/C(=O)Nc1ccccc1Br	1.9%
Cc1nc(C(=O)Nc2cccc(Cl)c2Cl)nn1-c1cc(OC(C)C)c(Cl)cc1Cl	-12.4%
CC(C)CCOc1ccc(-c2c(=O)n(OCc3ccc([N+](=O)[O-])cc3)c3ccccc3[n+]2[O-])cc1	?
O=C1OC(Nc2ccc3c(c2)OCO3)c2ccccc21 (configuration not stated)	-1.3%
Cc1ccc2[nH]c3c(=O)n(CCCN4CCOCC4)cnc3c2c1	?
Cc1sc(NC(=O)COc2cccc(-n3cnnn3)c2)c(C#N)c1C	-11.5%
COc1ccc(NC(=O)CCCN2C(=O)CCC2=O)cc1Cl	-9.9%
COCC(C)NC(=O)c1oc2c(c1C)C1(CCC2)SCCS1 (configuration not stated)	-5.5%
CC1CCN(C(=O)COC(=O)c2cc(Cl)cc(Cl)c2N)CC1	?
O=C(Nc1ccccc1)N1CCCC2(CCNCC2)C1	-6.0%
Cc1ccc(OCCSCc2nnc(NC(=O)Nc3cccc(Cl)c3)s2)cc1	-8.5%
O/N=C1/CCc2cccc3cccc1c23	-28.5%
Cc1cccc(-c2nc(CS(=O)CC(=O)N3CCCCC3)c(C)o2)c1 (configuration not stated)	-6.5%
CCOC(=O)c1c(NC(=O)CSc2ncn[nH]2)sc(C)c1C	-14.0%
Cc1ccc(-c2oc3ccccc3c(=O)c2O)cc1	-20.3%
N#Cc1nc(-c2ccc(OCc3ccc(Cl)cc3)cc2)oc1NCCCn1ccnc1	?
Cc1ccc2c(c1Br)/C(=N/N1C(=O)c3ccccc3C1=O)C(=O)N2	-12.2%
O=C(CSc1nnc(-c2ccco2)o1)NCC(=O)c1ccccc1	-11.0%
CCOC(=O)CC1(C)NC(=O)c2c(C)sc(C(=O)OCC)c2N1 (configuration not stated)	?
CCc1ccc(S(=O)(=O)NCc2cn3cccc(C)c3n2)s1	-5.1%
Cc1cc(N2CCOCC2)c2c(N)c(Br)cc(C)c2n1	-12.3%
O=[N+]([O-])c1ccc(Oc2ccc(S(=O)(=O)N3CCCCC3)cc2)cc1	-6.9%

Sorted by the number under HPGD block (ascending): 3 from the list above
SMILES	HPGD block
CCOC(=O)c1c(NC(=O)CSc2ncn[nH]2)sc(C)c1C	-14.0%
Cc1cccc(-c2nc(CS(=O)CC(=O)N3CCCCC3)c(C)o2)c1 (configuration not stated)	-6.5%
CCc1ccc(S(=O)(=O)NCc2cn3cccc(C)c3n2)s1	-5.1%

Remaining list, next part
SMILES	HPGD block
O=C(Nc1ccccc1)C1CCN(c2nccs2)CC1	-10.9%
OCC1O[C@H](O[C@H]2C(O)C(O)C(O)O[C@@H]2CO)C(O)C(O)C1O (some centres not stated)	-13.4%
COc1ccc(CC(=O)N2CCN(c3ccccn3)CC2)cc1OC	?
COc1ccc2oc(=O)c(C(=O)N3CCN(c4ccc(F)cc4)CC3)cc2c1	?
Cc1nc2c(C(=O)NCc3ccc4c(c3)OCO4)c[nH]n2c(=O)c1Cc1ccccc1F	-28.7%
Cc1ccc(OCC(=O)NCC(=O)Nc2ccc(F)cc2)c([N+](=O)[O-])n1	-10.9%
COCCNC(=O)C(C)OC(=O)c1cc2sccc2n1C (configuration not stated)	-28.0%
CC1=C(C(=O)N2CCOCC2)C(c2ccccc2F)C2=C(CC(C)(C)CC2=O)N1 (configuration not stated)	?
CCN(Cc1ccccc1)C(c1ccc(C)cc1)c1nnnn1C(C)(C)CC (configuration not stated)	-3.6%
COc1ccc(-c2cc(-c3nnc(COC(=O)CC4CCCC4)o3)c3ccccc3n2)cc1OC	?
C[N+]1(CCC[N+]2(C)C[C@H]3[C@H](C2)[C@H]2C=C[C@@H]3CC2)CCOCC1 (some centres not stated)	3.16µM*
CC(C)(C)c1ccc(-c2n[nH]c(=S)n2/N=C/c2ccncc2)cc1	11.2µM*
CCN(CC)CCOC(=O)c1cc(Cl)c(N)cc1OC	-4.4%&-13.6%
C=CCNC(=S)Nc1ccc2nsnc2c1	-11.0%
COc1ccc(CN2CCC(C(=O)N(C)CCc3ccc(OC)c(OC)c3)CC2)c(OC)c1	-5.4%
CCCCCCCCCCn1cc(C(C)=O)c(=O)[nH]c1=O	-21.7%
CNc1c([N+](=O)[O-])cnn1-c1ccccc1Cl	-9.4%
CCCSc1nc2c(cnn2-c2ccc(C)cc2)c(=O)[nH]1	-7.0%
O=C(CC1SC2=NCCN2C1=O)Nc1ccc(Cl)cc1 (configuration not stated)	-0.4%
CCN(C(=O)c1ccc2c(Cl)c3c(nc2c1)CCC3)c1ccc(C)c(C)c1	?
COc1cc2cc(C)c3nnc(SCC(N)=O)n3c2cc1OC	2.1%
O=C(CN1N=C(c2ccccc2)CCC1=O)NCCCN1CCc2ccccc2C1	0.0%
CCN1CCN(CCn2c(=S)[nH]c3ccccc3c2=O)CC1	-2.8%
Cc1cccc(NS(=O)(=O)Cc2ccccc2)n1	?
Cc1ccc(-c2noc(-c3cccs3)n2)cc1	-16.0%
Continuation:
SMILES	HPGD block
COC(=O)C1CCN(Cc2cc(=O)oc3cc(OC)ccc23)CC1	-13.2%
COc1cc(C(=O)OCC(=O)NC2CCCC2)cc(NC(=O)c2ccco2)c1OC	-26.2%
CCc1ccccc1NC(=O)CN(C)C(=O)CSc1nnc(Nc2cccc(C)c2C)s1	-14.2%
CCOC(=O)C1(C(F)(F)F)N=C(N(C)C)OC(N(C)C)=N1	-8.9%
Cc1cnc(NC(=O)CSc2nnc(Cc3ccccc3)n2C)s1	-13.5%
COc1ccc(Nc2ncnc3c2cnn3-c2ccccc2)cc1OC	?
CCN1CCN(Cc2c(O)c(Cl)cc3c(C)cc(=O)oc23)CC1	?
O=C(Nc1ccc(N2CCOCC2)c(Cl)c1)c1cccc(F)c1	?
Cc1cc2ncn(C3CC(=O)N(Cc4ccccc4)C3=O)c2cc1C (configuration not stated)	-13.8%
CC1CC2(NC(=O)NC2=O)C(C)CN1C (configuration not stated)	0.7%
CC(C)OC(=O)c1ccc(N2C(=O)C3CC=CCC3C2=O)cc1 (configuration not stated)	-1.6%
CCc1cccc(NC(=O)CN(c2ccc(OC)cc2)S(=O)(=O)c2c(C)n[nH]c2C)c1	-10.7%
CC(=O)Nc1cccc(NC(=O)Cc2nc(-c3ccccc3)sc2-c2ccc(C)cc2)c1	-14.2%
CC1=CC(C)(C)N2C(=O)C3(C(C#N)=C(N)OC4=C3C(=O)CC(C)(C)C4)c3c(C)c(C)cc1c32 (configuration not stated)	-13.3%
C/C(=N\NC(=O)c1ccncc1)C12CC3CC(CC(C3)C1)C2	-9.4%
Cc1c(NC(=O)CSc2nc3ccccc3n2C)c(=O)n(-c2ccccc2)n1C	-2.6%
N#CCCN(C(=O)COc1ccc(Cl)cc1Cl)c1ccccc1	-10.1%
Clc1ccc(CCNc2ncnc3nc[nH]c23)cc1	-5.1%
CCN(CC)c1ccc(/C=N/NC(=O)OC)c(O)c1	?
Clc1ccc2c(c1)N=C(N1CCNCC1)c1ccccc1N2	-8.3%
C/C(=N\NC(=S)NCc1ccccc1)c1ccc(C(C)(C)C)cc1	-12.1%
COc1ccc(NC(=O)Nc2ccc3c(c2)N(C)C(=O)CS3)cc1Cl	-7.9%
Cc1ccnc(NC2c3ccccc3C(=O)N2Cc2ccccc2Cl)c1 (configuration not stated)	-20.1%
CN(C)CCCNc1ccc(S(N)(=O)=O)cc1[N+](=O)[O-]	-0.5%
O=C(c1ccco1)N1CCN(C(=O)c2snc3ccc(Cl)cc23)CC1	-20.9%

Look-ups from the list.
HPGD block, `COc1cc(C(=O)OCC(=O)NC2CCCC2)cc(NC(=O)c2ccco2)c1OC` reads -26.2%
HPGD block, `Cc1c(NC(=O)CSc2nc3ccccc3n2C)c(=O)n(-c2ccccc2)n1C` reads -2.6%
HPGD block, `CCOC(=O)C1(C(F)(F)F)N=C(N(C)C)OC(N(C)C)=N1` reads -8.9%
HPGD block, `CCc1ccccc1NC(=O)CN(C)C(=O)CSc1nnc(Nc2cccc(C)c2C)s1` reads -14.2%

Remaining list, next part
SMILES	HPGD block
CCOC(=O)C1CCN(C(=O)c2ccc(OCC)c(OCC)c2)CC1	-7.4%
CCN1C(=O)c2ccccc2S(=O)(=O)c2ccc(C(=O)NCc3cccnc3)cc21	-9.4%
CCC(C)NCCCOc1cc(Cl)ccc1Cl (configuration not stated)	-1.2%
COc1ccc(CNC(=O)C2CCCN(S(=O)(=O)c3cc(C)ccc3OC)C2)cc1 (configuration not stated)	-0.2%
COc1ccc(CCNC(=O)CSc2nnc(CNC(=O)c3cccs3)o2)cc1OC	-2.0%
CCOC(=O)c1ccc2[nH]c(C)cc(=O)c2c1	?
OCCNC(=S)NC1CCCCC1	5.1%
CCC(=O)Nc1cc(NC(=O)CSc2ncc(-c3ccc(F)cc3)n2Cc2ccco2)ccc1C	-16.6%
COc1ccc(Cc2nnc(NC(=O)CSc3ccc(C)cc3)s2)cc1	-10.5%
CN(C(=O)COc1nnc(-c2cccs2)c(-c2cccs2)n1)c1ccccc1	-24.7%
CC(=O)Cc1nsc(NC(=O)c2ccc(Br)o2)n1	-5.9%
CCN(C(C)=O)N(CC)c1nc(Cl)nc(NC(C)C)n1	-0.9%
Cc1cc(CC(=O)O)c(C)cc1CC(=O)O	-5.8%
COc1ccc(C(=O)CC(c2ccccc2)C2CCCCC2=O)cc1 (configuration not stated)	-15.4%
CCc1nnc(NS(=O)(=O)c2ccc(N/C=C\C(=O)c3ccc4ccccc4c3)cc2)s1	?
COc1ccc(N(C(=O)CCl)C(C(=O)NC2CCCCC2)c2cccnc2)cc1 (configuration not stated)	-11.7%
Cc1ccc(-c2nnc(CSc3nnc(C)s3)o2)cc1	-17.0%
COc1ccccc1NC(=O)c1ccccc1SC	-5.7%
N#Cc1nc(-c2ccc(OCc3ccccc3Cl)cc2)oc1NCCCn1ccnc1	?
Cc1ccc(NC(=O)c2sccc2C)cc1[N+](=O)[O-]	?
CCCS(=O)(=O)NCCc1cc2ccc(OC)cc2[nH]c1=O	-17.3%
CS(=O)(=O)N(CC(=O)N1CCN(c2ccc(F)cc2)CC1)c1ccc(F)c(Cl)c1	1.7%
Cn1c(SCC(=O)N2CCN(c3ccccc3)CC2)nnc1-c1ccccc1	-1.2%
COc1cccc(/C=N/NC(=O)c2ccc(CN3c4cccc5cccc(c45)S3(=O)=O)cc2)c1	?
Nc1nnc(SCC(=O)NN2C(=O)NC3(CCCCC3)C2=O)s1	-3.2%
(more compounds)
SMILES	HPGD block
COc1ccc(C(C)=O)c(O)c1	17.8µM*
Cc1nnc(SCC(=O)N2CCN(S(=O)(=O)c3ccccc3)CC2)n1Cc1ccccc1	-8.7%
O=C(C(c1ccccc1)c1ccccc1)N1CCN(Cc2ccncc2)CC1	-5.6%
Cc1ccccc1C(=O)Nc1ccc2c(C#N)c3nc4ccccc4nc3n2c1	-20.4%
CCCCOC(=O)CSC1=C(C#N)C(c2ccccc2OC)C(C#N)C(=O)N1 (configuration not stated)	-9.3%
O=C(Nc1cnn(C23CC4CC(CC(C4)C2)C3)c1)c1cnn2c(C(F)(F)F)cc(-c3ccco3)nc12	-7.9%
CCN(CC)S(=O)(=O)c1ccc(C(=O)OCCN2C(=O)c3cccc4c(N5CCOCC5)ccc(c34)C2=O)cc1	-7.0%
COc1ccc(NC(=O)C23CCC(C)(C(=O)O2)C3(C)C)cc1 (configuration not stated)	2.5%
CCN(CC)CCSc1nc(O)c(C(C)C)c(=O)[nH]1	-7.7%
O=C(Cn1cc2c(n1)CCCCC2)NCCCN1CCOCC1	-0.9%
Cc1oc2cc(OCC(=O)O)ccc2c(=O)c1Oc1ccccc1	-22.9%
Cc1cc2c(=O)n(NC(N)=O)c(C)nc2s1	-0.3%
COc1nc(Nc2ccc([N+](=O)[O-])cc2)nc(NC(C)C)n1	-17.8%
Cc1ccc2nc(SCC(=O)c3cc(C)n(C)c3C)[nH]c2c1	-15.7%
CC(=O)c1c(C)[nH]c(C(=O)OCC(=O)N2CC(=O)Nc3ccccc32)c1C	-8.1%
Cc1ccccc1-c1nnc(NC(=O)c2cc3ccccc3oc2=O)s1	-5.5%
CCCCn1cc(SCC(=O)O)c2ccccc21	-25.9%
CCOC(=O)C1=C(C)Nc2nc(=S)[nH]n2C1c1ccc(Cl)cc1 (configuration not stated)	11.2µM*
CSc1cccc(NC(=O)/C=C/c2ccc(Cl)cc2)c1	-2.0%
CCOC(=O)c1cc(C)sc1NC(=O)c1ccc(Cl)s1	-26.9%
CCCCc1nc2ccccc2c(=O)n1NC(=O)c1c(O)c2c(n(CC(C)C)c1=O)CCCC2	-26.6%
Cn1c(NCc2ccco2)nc2c1c(=O)n(Cc1ccc(Br)cc1)c(=O)n2C	-9.1%
COCCNC(=O)CSc1nc(-c2ccccc2)cs1	31.6µM*
Cc1cc(C)n(-c2nnc3n2N=C(c2c[nH]c4ccccc24)CS3)n1	-8.6%
C=CCn1c(NS(=O)(=O)c2ccccc2)c(S(=O)(=O)c2ccc(C)cc2)c2nc3ccccc3nc21	?
COC(=O)N1CCC2(CCN(C(=O)Nc3cccc(F)c3)CC2)CC1	1.8%
COc1c(O)cc2c(=O)oc3c(OC)c(O)cc4c(=O)oc1c2c34	5.01µM*
CCOC(=O)/C(C(N)=NCCCO)=C(/O)c1ccccc1	-4.1%
Cc1ccc(C(c2nnnn2C2CCCC2)N2CCc3ccccc32)cc1 (configuration not stated)	-6.6%
Cc1[nH]nc2c1C1(CCN(C(=O)c3ccccc3)CC1)C(C#N)=C(N)O2	-1.2%

Rewritten with each value named: part of the list above.
Structure: Cn1c(NCc2ccco2)nc2c1c(=O)n(Cc1ccc(Br)cc1)c(=O)n2C
  HPGD block = -9.1%

Structure: Cc1cc(N2CCOCC2)c2c(N)c(Br)cc(C)c2n1
  HPGD block = -12.3%
